# Screens from PubChem.
# GRIN3A LBD mod: binders of NR3A ligand-binding domain, primary screen, biophysical, differential scanning fluorimetry, uHTS; NR3A LBD differential scanning fluorimetry, Tm shift; 0% = protein alone, 100% = glycine-bound protein; Tm shift relative to glycine control, % at 25 µM; hit rate 2.5% among 340,000;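 active = melting temperature shift of at least 10% of the positive control shift, at one fixed dose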
# HKDC1 inhibitor: HKDC1 hexokinase inhibitors, primary screen, biochemical, fluorescence, uHTS. recombinant HKDC1, G6PDH/diaphorase resazurin coupled fluorescence. hit rate 0.16% among 340,000. Q2TB90. inhibition, % at 20 µM;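 active = inhibition above about 35% when tested at 20 µM, limit read from the data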;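 note: plate controls were DMSO wells with enzyme for no effect and DMSO wells lacking enzyme for full effect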
#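 test system = in-house recombinant HK5 (HKDC1) enzyme | amount = HKDC1 at 5 µg/mL | control set = DMSO-enzyme wells negative, buffer-substituted wells positive | compound = one dose of 20 µM, 1% DMSO | schedule = reaction time 90 min, room temperature, protected from light | technique = resorufin fluorescence at 613 nm | reagent = glucose with 1 mM ATP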
# ATG4B inh: ATG4B protease inhibitors, primary screen, biochemical, fluorescence, uHTS; hit rate 0.51% among 340,000; ATG4B cleavage of LC3-PLA2, NBD-HPC fluorescence, 1 h; inhibition, % at 8.33 µM; Cysteine protease ATG4B (Homo sapiens), Q9Y4P1; in the data active = inhibition above about 40%
# Target sequence (Q9Y4P1 whole entry, looked up): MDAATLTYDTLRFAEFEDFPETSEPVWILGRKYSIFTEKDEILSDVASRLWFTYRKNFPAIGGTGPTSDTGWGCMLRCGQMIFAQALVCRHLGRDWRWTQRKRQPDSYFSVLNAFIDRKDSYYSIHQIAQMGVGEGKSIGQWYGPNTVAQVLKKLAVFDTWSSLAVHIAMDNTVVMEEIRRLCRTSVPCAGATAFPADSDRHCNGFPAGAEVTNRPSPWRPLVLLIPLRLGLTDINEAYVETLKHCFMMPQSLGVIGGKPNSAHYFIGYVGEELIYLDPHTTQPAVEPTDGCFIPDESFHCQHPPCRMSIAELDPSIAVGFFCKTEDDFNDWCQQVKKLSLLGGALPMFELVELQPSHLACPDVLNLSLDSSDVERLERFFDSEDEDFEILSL
# MPTP inh: mitochondrial permeability transition pore inhibitors, primary screen, biochemical, isolated mouse mitochondria, absorbance; AID 602449, 2012; hit rate 1.4% among 360,000; Ca2+ swelling absorbance, 30 min; inhibition, % at 10 µM;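 active = inhibition of 50% or more, scaled per plate between neutral and stimulator controls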;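 note: 0% = DMSO wells given calcium and 100% = 1 mM EGTA wells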
# PfG6PD inh: PfG6PD enzyme inhibitors, primary screen, biochemical, fluorescence intensity, uHTS; PfGluPho enzyme, NADPH resazurin-diaphorase fluorescence; inhibition, % at 20 µM; hit rate 0.78% among 350,000;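 active = inhibition reaching at least a set limit at 20 µM in the primary screen, cut at about 59% in these data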;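 note: 0% = DMSO wells with substrate and 100% = DMSO wells lacking glucose-6-phosphate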
# SENP8 block: human SENP8 protease inhibitors, primary screen, biochemical, fluorescence, Nedd8 protein substrate, uHTS; Sentrin-specific protease 8 (Homo sapiens), Q96LD8; recombinant SENP8; inhibition, % at 20 µM; hit rate 0.64% among 360,000; AID 602440, 2012; in the data active = inhibition mostly above about 40%, no sharp cut-off; inactive = mostly below about 27%
# Target sequence (Q96LD8 whole entry, looked up): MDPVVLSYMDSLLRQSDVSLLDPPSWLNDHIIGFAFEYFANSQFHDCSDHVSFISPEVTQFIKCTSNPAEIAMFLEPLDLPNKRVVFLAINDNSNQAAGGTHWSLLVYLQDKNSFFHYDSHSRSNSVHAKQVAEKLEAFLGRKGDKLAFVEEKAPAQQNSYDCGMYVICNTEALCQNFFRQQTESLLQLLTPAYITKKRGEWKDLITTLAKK
# Numbers without * were called inactive. Some of the compounds tested; the hit share may differ from the screen's.
SMILES,GRIN3A LBD mod,HKDC1 inhibitor,ATG4B inh,MPTP inh,PfG6PD inh,SENP8 block
COc1cccc(/C=C/C(=O)c2cccc([N+](=O)[O-])c2)c1,-5,2,0,0.0,4,23
O=C(Nc1ccccc1Oc1ccccc1)c1cccc([N+](=O)[O-])c1,0,-5,-1,5.2,4,0
CN(C)CCOCCOc1ccc(Cl)c2ccccc12,0,0,-5,-0.8,-3,-6
CC1(C)Cc2ccccc2C(C(=O)c2ccccc2)=N1,2,-6,-3,-1.8,4,16
CCOC(=O)C1CCN(C(=O)NC23CC4CC(CC(C4)C2)C3)CC1,-1,-12,0,-1.0,-8,5
C=CCNc1ncnc2c1cnn2-c1ccc(OC)cc1,0,2,3,-1.0,9,-148
COc1ccc(/C=N\NC(=O)c2ccccc2OC)cc1COc1ccccc1C,-2,5,-2,-0.7,5,-167
CSc1nc(N2CCN(C)CC2)c2c(c1C#N)CC(C)(C)OC2,0,-2,-6,-1.8,3,4
CC(C)c1ccc(-c2c(NCCc3ccccc3)c(=O)c2=O)cc1,4,-2,-2,1.5,-22,12
CCOC(=O)N1CCN(C(=O)NC23CC4CC(CC(C4)C2)C3)CC1,-2,-6,-9,0.3,0,20
Cc1cc2cc(C#N)c(NCCNC(=S)NCCCN3CCOCC3)nc2cc1C,0,2,-8,-2.7,-7,-372
CNC(=O)c1ccc(-c2cc3onc(-c4ccccc4)c3c(=O)n2C)cc1,-2,-2,-1,-0.2,-4,-138
CCOc1ccc(-c2cccc(NS(=O)(=O)c3ccccc3[N+](=O)[O-])c2)nn1,1,6,2,1.0,-19,9
CCOc1ccc(CNC(=O)c2nnc(CS(=O)(=O)c3ccccc3)o2)cc1OC,0,-4,-8,0.6,-9,19
COc1ccccc1NC(=O)CC(c1ccc(OC(C)C)cc1)c1ccccc1OC (configuration not stated),1,4,-5,1.7,4,-1
CN(C)CCOc1ccccc1C(C)(C)C,0,-2,-4,-2.1,-9,12
CC(C)(C)c1ccc(S(=O)(=O)NCc2ccc(C(=O)N3CCCC3)cc2)cc1,-1,6,0,-2.3,-7,7
Cc1ccc(NC(=O)CNC(c2ccccc2)c2ccccc2)c(F)c1,-1,-8,-7,14,26,27
COc1ccc(CCNC(=O)c2nnc(Cc3c(F)cccc3Cl)o2)cc1OC,3,-2,2,0.9,-10,1
COc1ccc(NC(=O)c2ccc(NC(=O)C(C)C)cc2)c([N+](=O)[O-])c1,-22,-5,10,6.5,-18,25
Cc1[nH]c(=O)[nH]c(=O)c1S(=O)(=O)Nc1cccc(C(F)(F)F)c1,0,-2,6,0.1,-6,5
Cc1ccc(N2CC(C(=O)Nc3nc4ccc(S(C)(=O)=O)cc4s3)CC2=O)cc1 (configuration not stated),1,4,6,0.0,-12,-7
CN(C)CCOc1ccc(Cl)cc1C(C)(C)C,-2,-4,9,2.1,22,9
Cc1cc(C(=O)COC(=O)c2csc3c2CCCC3)c(C)n1C,-1,-1,22,0.2,-11,10
CCc1ccccc1-n1c(SCC(=O)NC)nnc1-c1ccco1,2,-7,-2,1.5,-11,-2
COc1ccc(CC(=O)c2cc(OC)c(OC)cc2CC(=O)O)cc1OC,-2,-3,-4,-3.1,-9,17
CCn1c(Cc2ccccc2)nnc1SCC(=O)Nc1ccccc1,-1,-7,-9,-1.3,-3,23
COc1ccc(Nc2nc(C)cc(C)c2C(N)=O)cc1,-2,-6,-7,-2.6,-25,18
COc1cc(/C=C2\C(=O)N(C)C(=S)N2C)ccc1O,-4,-5,2,2.6,4,-2
C/C(N)=C(/C#N)C(=O)CSc1n[nH]c(-c2cccs2)n1,-3,-2,5,2.3,-4,9
CC(C)(C)NC(=O)CSc1nc(O)cc(=O)[nH]1,-3,-15,-4,-0.9,-1,7
C=CCn1c(CCNC(=O)c2ccccc2F)nnc1SCc1nc2ccccc2c(=O)[nH]1,-5,2,-2,-1.0,-17,10
O=C(NNC(=O)c1ccccc1-n1cccc1)c1ccc(F)cc1,-1,-12,-5,-2.1,-3,-8
CCCNC(=O)C1(S(=O)(=O)c2ccccc2)CC=CC1,-3,-8,-2,-2.2,-4,14
CC(C)[C@H](Nc1ccc(S(=O)(=O)N2CCOCC2)cc1[N+](=O)[O-])C(=O)OCC(=O)N(C(C)C)C(C)C,-5,-8,-5,2.4,1,19
CC1CCCN(C2(O)C(=O)Nc3ccc(Cl)cc32)C1 (configuration not stated),0,3,-8,-0.5,3,24
Cn1c(-c2ccc(F)cc2)cc2onc(-c3ccccc3Cl)c2c1=O,-1,2,-7,0.8,4,6
CCOC(=O)C1=NN(c2ccccc2)C2C(=O)N(c3ccccc3OC)C(=O)C12 (configuration not stated),1,-2,-12,0.7,-4,-431
N#CC(c1ccccc1)(c1ncc(C(F)(F)F)cc1Cl)N1CCOCC1 (configuration not stated),-2,-6,-4,-1.3,18,21
O=C(c1ccc(S(=O)(=O)N2CCCC2)cc1)N(c1ccccc1)C1C=CS(=O)(=O)C1 (configuration not stated),-1,-4,-1,-0.4,0,3
COc1ccc(CCNC(=O)c2c(-c3ccccc3)noc2C)cc1OC,2,-10,-3,0.3,20,4
CCOc1ccc(NC(=O)c2cnsn2)cc1,0,1,-8,-0.6,-7,22
COc1ccc(/C=C2\N=C(C)N(c3ccc(C(=O)O)cc3)C2=O)cc1OC,-1,-2,-6,0.5,2,-4
Cc1ccc(CNC(=O)c2nnc(CS(=O)(=O)c3ccccc3)o2)cc1,0,2,-6,-0.6,-3,4
FC(F)Sc1ccc(Nc2ncnc3nc[nH]c23)cc1,-2,17,-9,23,11,-4
CN1c2ccccc2Oc2c(c(=O)n(C)c(=O)n2C)C1c1cccc([N+](=O)[O-])c1 (configuration not stated),1,1,-6,-2.2,3,21
CCOC(=O)N1CCN(C(=O)c2ccc3c(c2)NC(=O)/C(=C/c2ccccc2)S3)CC1,-2,4,10,1.1,-1,-9
O=C(Nc1ccc2oc(=O)ccc2c1)c1cccnc1Cl,-5,-6,-16,-1.5,-15,-234
CC1CN(C(=O)COC(=O)Cc2c(F)cccc2Cl)CC(C)O1 (configuration not stated),0,-3,2,-0.9,-15,19
Cc1[nH]n2c(=O)c3c(nc2c1-c1ccccc1)CCCC3,0,0,-3,0.0,0,-331
O=C(Nc1ccc(N2CCOCC2)cc1N1CCOCC1)c1ncoc1-c1cccc(F)c1,2,1,-7,1.1,15,12
Cn1c(CNC(=O)c2ccc(F)cc2)nc2ccccc21,1,-10,4,1.6,1,-20
COc1cc(CO)c(Br)cc1OCC(N)=O,-1,-10,2,1.8,-6,10
CC1(C)Cc2nc(-c3ccccc3)nc(SCC(O)CO)c2CO1 (configuration not stated),0,-5,-10,-0.2,-3,10
COc1ccccc1-c1n[nH]c(=S)n1Cc1ccccc1,1,-2,-4,0.5,28,13
COc1ccc(/C=C(/Sc2nnc(-c3ccc(Cl)cc3)o2)C(=O)O)cc1,6,-6,-4,2.5,9,12
COc1ccc(NC(=S)NC(NC(=O)c2ccccc2Cl)C(Cl)(Cl)Cl)c([N+](=O)[O-])c1 (configuration not stated),10,-1,-1,66*,11,10
CCN1CCN(C(=O)C(=O)c2c(C)[nH]c3ccccc23)CC1,-1,-7,-26,1.7,-1,15
O=C(Nc1ccc(S(=O)(=O)N2CCOCC2)cc1)c1cccs1,-3,-5,-9,-0.6,-2,5
COc1cccc(Nc2ncnc3nc[nH]c23)c1,0,-4,-9,-2.6,11,1
# Following part:
SMILES,GRIN3A LBD mod,HKDC1 inhibitor,ATG4B inh,MPTP inh,PfG6PD inh,SENP8 block
CC(C)NC(=O)C(OC(=O)c1ccccc1)C(OC(=O)c1ccccc1)C(=O)O (configuration not stated),1,-2,-8,1.2,-3,19
Cc1c(C(=O)Nc2nc3ccccc3[nH]2)oc2ccccc12,-6,5,2,30,-4,-156
O=C(Nc1ccc2oc(=O)ccc2c1)c1ccco1,-21,0,-9,0.9,-2,-281
COc1ccc(OC)c(-n2c(-c3cc(-c4ccccc4)n[nH]3)n[nH]c2=S)c1,-1,12,7,0.7,38,-8
CC1=C(C(=O)Nc2ccccc2)C(c2cccs2)n2nnnc2N1 (configuration not stated),-2,-4,6,-1.2,-10,12
CN1CCN(c2cc(-c3ccccc3)nc3cc(-c4ccc(F)cc4)nn23)CC1,-7,8,-8,6.4,9,-435
CCN(CC)S(=O)(=O)c1ccc(Cl)c(C(=O)Nc2ccc(Cl)cc2[N+](=O)[O-])c1,-5,-8,3,91*,11,17
COc1cc(Br)c(CC(=O)NNC(=O)c2ccc(F)cc2)cc1OC,0,-3,-10,-0.9,10,4
COc1ccc(NC(=O)c2c(Cl)cnn2C)c(C)c1,-1,-7,6,0.5,1,1
O=C(NCc1ccco1)C1(S(=O)(=O)c2ccc(Cl)cc2)CC1,1,-3,15,-1.6,-5,9
CC1=C(C(=O)Nc2ccccc2)C(c2ccncc2)n2nnnc2N1 (configuration not stated),-3,-6,2,0.3,-2,12
Cc1cc2occ(CC(=O)NNC(=O)c3ccccc3)c2cc1C,1,2,7,0.4,6,0
Cc1cccc(C(=O)NN/C=C/C(=O)c2ccccc2)c1,-3,-1,6,0.7,-5,26
COC(=O)C(Cc1ccccc1)NC(=S)NC(=O)c1ccccc1 (configuration not stated),-1,2,4,7.2,-10,14
CCC1CCCCN1CCCNC(=O)CCCNC(=O)Cn1cnc2sc3c(c2c1=O)CCCC3 (configuration not stated),0,-2,3,4.2,-10,10
Cc1cc(C)c2c(CC(=O)Nc3ccc(Cl)cn3)coc2c1,-10,-3,-2,2.2,-2,17
CCCn1nnc(NC(=O)c2ccc(-c3cc(Cl)ccc3Cl)o2)n1,-2,-3,-3,6.2,-3,0
O=C(Nc1cccnc1)c1cccc(S(=O)(=O)Nc2ccccc2F)c1,0,-3,-2,-1.1,3,16
COc1cc(NS(=O)(=O)c2ccc(NC(=S)NC(=O)c3ccco3)cc2)nc(OC)n1,-1,3,6,-0.6,-21,25
CC(C)(C)c1cc(C(=O)N/N=C/c2cc3c(cc2Br)OCO3)n[nH]1,-10,3,0,5.9,-22,-32
COc1ccc(OCC(=O)Nc2cccc(OC)c2)cc1,-29,-5,-3,0.8,7,6
Cc1cc(C)c(S(=O)(=O)Nc2cccc(/C=C/C(=O)O)c2)c(C)c1,0,2,15,1.7,22,11
COc1ccc(C2C3=C(Nc4ncnn42)c2ccccc2CCC3)cc1 (configuration not stated),-1,-4,-11,0.3,2,-147

# Given with two lines to a compound: part of the list above
# Order of results: GRIN3A LBD mod, HKDC1 inhibitor, ATG4B inh, MPTP inh, PfG6PD inh, SENP8 block
CCN(CC)S(=O)(=O)c1ccc(Cl)c(C(=O)Nc2ccc(Cl)cc2[N+](=O)[O-])c1
  -5, -8, 3, 91*, 11, 17
COc1cc(Br)c(CC(=O)NNC(=O)c2ccc(F)cc2)cc1OC
  0, -3, -10, -0.9, 10, 4
COc1ccc(NC(=O)c2c(Cl)cnn2C)c(C)c1
  -1, -7, 6, 0.5, 1, 1
O=C(NCc1ccco1)C1(S(=O)(=O)c2ccc(Cl)cc2)CC1
  1, -3, 15, -1.6, -5, 9
CC1=C(C(=O)Nc2ccccc2)C(c2ccncc2)n2nnnc2N1 (configuration not stated)
  -3, -6, 2, 0.3, -2, 12
Cc1cc2occ(CC(=O)NNC(=O)c3ccccc3)c2cc1C
  1, 2, 7, 0.4, 6, 0
Cc1cccc(C(=O)NN/C=C/C(=O)c2ccccc2)c1
  -3, -1, 6, 0.7, -5, 26
COC(=O)C(Cc1ccccc1)NC(=S)NC(=O)c1ccccc1 (configuration not stated)
  -1, 2, 4, 7.2, -10, 14
CCC1CCCCN1CCCNC(=O)CCCNC(=O)Cn1cnc2sc3c(c2c1=O)CCCC3 (configuration not stated)
  0, -2, 3, 4.2, -10, 10
Cc1cc(C)c2c(CC(=O)Nc3ccc(Cl)cn3)coc2c1
  -10, -3, -2, 2.2, -2, 17
CCCn1nnc(NC(=O)c2ccc(-c3cc(Cl)ccc3Cl)o2)n1
  -2, -3, -3, 6.2, -3, 0
O=C(Nc1cccnc1)c1cccc(S(=O)(=O)Nc2ccccc2F)c1
  0, -3, -2, -1.1, 3, 16
COc1cc(NS(=O)(=O)c2ccc(NC(=S)NC(=O)c3ccco3)cc2)nc(OC)n1
  -1, 3, 6, -0.6, -21, 25
CC(C)(C)c1cc(C(=O)N/N=C/c2cc3c(cc2Br)OCO3)n[nH]1
  -10, 3, 0, 5.9, -22, -32
